Screening results from PubChem BioAssay.
SARS PLP yeast – SARS-CoV PLP inhibition in yeast; S. cerevisiae expressing SARS-CoV PLpro, growth rescue; control for the full effect not named in the record; hit rate 0.19% among 330,000; Potency, µM (top dose mostly 32.9 µM), without a hit: at the highest dose activity, positive = growth rescue; note: 0% is about no effect; nearly all actives have a fitted effect of over 55% in size; growth read by luminescence after 48 h
Marburg entry inh – inhibitors of Marburg virus binding or cell entry. Marburg virus pseudotyped entry inhibition, cell reporter; control for the full effect not named in the record; about a third of the inactives were read at about 46 µM. Potency, µM (series often up to 37.8 µM), inactives show at the top dose activity change, negative = inhibition, most hits filed as inhibitors. hit rate 1.8% among 300,000. AID 540276; active = well fitted inhibition curve with a large enough effect; inconclusive = small, poorly fitted or top-dose-only effect, or effect the other way; inactive = flat fitted curve, though single readings scatter; tested in HEK293 cells; about a fifth of its hits are not listed in these tables; note: % is set by controls: 0 for no effect and ±100 for the full control effect; luciferase read-out
Cruzain inh noDet – inhibitors of Trypanosoma cruzi cruzain without detergent; P25779; purified cruzain, Z-FR-AMC fluorescence, no detergent; Potency, µM, for inactives: max response, negative = inhibition, usual class: inhibitors; hit rate 2.3% among 200,000; AID 1476; active = well fitted curve in the direction sought with a large enough effect; inconclusive = small, poorly fitted or top-dose-only effect, or another doubt; inactive = no such curve, though single readings can be large; an effect the other way counts as inactive or inconclusive;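 note: plate controls were enzyme without inhibitor for no effect and buffer without enzyme for full effect; nearly all actives have a fitted effect of over 40% in size; top concentration of the series not given in the record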
Target sequence (P25779 123-467 limits assumed): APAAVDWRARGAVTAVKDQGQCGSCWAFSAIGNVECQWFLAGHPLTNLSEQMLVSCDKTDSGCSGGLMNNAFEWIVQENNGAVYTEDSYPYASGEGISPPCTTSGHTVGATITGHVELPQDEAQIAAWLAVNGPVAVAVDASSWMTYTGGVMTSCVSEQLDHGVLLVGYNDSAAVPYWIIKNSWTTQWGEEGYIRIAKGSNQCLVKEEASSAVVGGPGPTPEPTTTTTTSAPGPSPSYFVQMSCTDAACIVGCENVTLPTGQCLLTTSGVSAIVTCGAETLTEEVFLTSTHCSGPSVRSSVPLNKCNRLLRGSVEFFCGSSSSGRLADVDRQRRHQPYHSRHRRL
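Detergent-free condition (0.00005% Triton X-100) in acetate buffer pH 5.5 with DTT. 1.5 nM enzyme and compound were pre-mixed 15 min, then 2 uM Z-FR-AMC substrate added; reaction progress from fluorescence change between first and third reads (60 s).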
StopGo reporter – FMDV 2A StopGo reporter, luciferase signal. human cells with a luciferase reporter of 2A StopGo recoding; control for the full effect not named in the record. Potency, µM (doses to about 57.9 µM), without a hit: at the top dose signal change, negative = less light. hit rate 1.2% among 410,000. AID 1159524; active = well fitted falling curve with a large enough effect; inconclusive = small, poorly fitted or top-dose-only effect; inactive = no such curve, though single readings can be large or run the other way; tested in HEK293T cells; note: % is set by controls: 0 for no effect and ±100 for the full control effect; nearly all actives have a fitted effect of over 45% in size; luciferase light after 4 h
LASV entry inh – inhibitors of Lassa virus binding or cell entry; Lassa virus pseudotype entry inhibition, cell reporter; control for the full effect not named in the record; Potency, µM (highest dose often 37.9 µM), for inactives: top-dose activity change, negative = inhibition, hits mostly inhibitors; hit rate 1.2% among 300,000; active means well fitted inhibition curve with a large enough effect; inconclusive means small, poorly fitted or top-dose-only effect, or effect the other way; inactive means flat fitted curve, though single readings scatter; tested in HEK293 cells; note: % is set by controls: 0 for no effect and ±100 for the full control effect; nearly all actives have a fitted effect of over 50% in size; luciferase read-out
NS1 function inh – blocks influenza NS1 protein function; S. cerevisiae slowed by influenza A NS1, growth recovery by OD600; Potency, µM (highest dose often 46.1 µM), for the others: top-dose activity, positive = more growth; hit rate 0.4% among 270,000; AID 2326; note: actives are rising curves; nearly all actives have a fitted effect of over 50% in size
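S. cerevisiae expressing influenza A NS1, grown in glucose, washed, then diluted 1:100 into pH 6.0 -URA galactose medium with 23 nl compound. Growth recovery read as OD600; NS1-free strain serves as control.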
Cruzain inh Det – inhibitors of Trypanosoma cruzi cruzain with detergent; purified cruzain, Z-FR-AMC fluorescence, 0.01% Triton; Potency, µM, inactives show max response, negative = inhibition, hits mostly inhibitors; hit rate 0.43% among 200,000; active = well fitted curve in the direction sought with a large enough effect; inconclusive = small, poorly fitted or top-dose-only effect, or another doubt; inactive = no such curve, though single readings can be large; an effect the other way counts as inactive or inconclusive;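 note: plate controls were neutral wells for no effect and buffer without enzyme for full effect; nearly all actives have a fitted effect of over 40% in size; top concentration of the series not given in the record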
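Detergent-containing arm of a paired screen for aggregation-based inhibition: 0.01% Triton X-100 present. Cruzain at 1.5 nM cleaved 2 uM Z-FR-AMC at pH 5.5 with 5 mM DTT; AMC fluorescence gain over 60 s measured activity.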
RE007 growth inh – less growth of the S. pombe RE007 Vpr strain. Potency, µM (titrated, usually from 92.2 µM), for the others: at the highest dose activity change, negative = less growth. AID 651644. S. pombe RE007 Vpr strain, BacTiter-Glo ATP luminescence, 24 h; control for the full effect not named in the record. hit rate 0.21% among 360,000; active = well fitted falling curve with a large enough effect; inconclusive = small, poorly fitted or top-dose-only effect; inactive = no such curve, though single readings can be large or run the other way;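 note: % is set by controls: 0 for no effect and ±100 for the full control effect; nearly all actives have a fitted effect of over 50% in size; the assay follows cell death caused by Vpr and the record does not say whether a fall means rescue or toxicity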
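Fission yeast RE007 carrying one integrated HIV-1 vpr copy, seeded at OD 0.01 in PMG+AL medium with 23 nL pinned compound. Grown 24 h at 30 degrees; viability read by BacTiter-Glo luminescence after 5 min.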
Active calls of the source: *; [ ] = remark or other dose. Unless noted, calls come from the whole dose curve; as a rule, active means well fitted rising curve with a large enough effect; inconclusive means small, poorly fitted or top-dose-only effect; inactive means no such curve, though single readings can be large or run the other way. Potency is the fitted concentration of half-maximal effect.

Results for O=C(C1=C[C@@H](c2ccc3c(c2)OCO3)C[C@@H](OCCCCO)O1)N1CCN(Cc2ccc3c(c2)OCO3)CC1 ?
SARS PLP yeast: 1%; StopGo reporter: -19%; NS1 function inh: -10%; RE007 growth inh: 0%

Results for COc1cccc(CN2CCN(C(=O)c3cccc(OC)c3)CC2)c1 ?
SARS PLP yeast: 1%; StopGo reporter: -2%; NS1 function inh: 4%; RE007 growth inh: 0%

What do the screens show for `CCNC(=O)Cn1c(=O)c(=O)n(Cc2ccccc2)c2ccc(Cl)cc21`?
SARS PLP yeast: -23%; Marburg entry inh: 20%; Cruzain inh noDet: 3%; StopGo reporter: -5%; LASV entry inh: 3%; NS1 function inh: 6%; Cruzain inh Det: -0.6%; RE007 growth inh: 16%

How did CN1CCN(C(=O)c2cc(Br)cn2C)CC1 do in these assays?
SARS PLP yeast: 1%; Marburg entry inh: inconclusive; StopGo reporter: -14%; LASV entry inh: 1%; NS1 function inh: 4%; RE007 growth inh: 9%

How did CC(C)Oc1ccc(C(=O)Nc2cccc3cccnc23)cc1 do in these assays?
SARS PLP yeast: -5%; Marburg entry inh: 10%; StopGo reporter: 24%; LASV entry inh: -3%; NS1 function inh: -2%; RE007 growth inh: -20%

How did C=CCn1c(Oc2ccc(C(=O)OC)cc2)nc2c1c(=O)n(C)c(=O)n2C do in these assays?
SARS PLP yeast: -1%; Marburg entry inh: 1%; Cruzain inh noDet: -3%; StopGo reporter: inconclusive; LASV entry inh: -23%; NS1 function inh: 2%; Cruzain inh Det: -1.3%; RE007 growth inh: 21%

What do the screens show for `CCOc1cccc(C2c3c(oc4ccccc4c3=O)C(=O)N2c2ccccn2)c1` (stereo unspecified)?
SARS PLP yeast: -9%; Marburg entry inh: 20%; Cruzain inh noDet: -19%; LASV entry inh: 13%; NS1 function inh: -7%; Cruzain inh Det: -1.3%

Results for COc1ccccc1C(=O)Nc1nnc(-c2ccc(F)cc2)s1 ?
SARS PLP yeast: -2%; Marburg entry inh: 1%[46.1 µM]; StopGo reporter: 34%[activator]; LASV entry inh: 16%[46.1 µM]; NS1 function inh: -43%; RE007 growth inh: -5%

How did COc1cc([N+](=O)[O-])ccc1N1C(=O)CC(Sc2nccc(C)n2)C1=O (stereo unspecified) do in these assays?
SARS PLP yeast: 1%; StopGo reporter: -7%; NS1 function inh: 22%; RE007 growth inh: 0%

What do the screens show for `CCOc1ccccc1-n1c(SCC(=O)N2CCOCC2)nnc1-c1ccccn1`?
SARS PLP yeast: 6%; Marburg entry inh: 2%[46.1 µM]; Cruzain inh noDet: -2%; StopGo reporter: -14%; LASV entry inh: -9%; NS1 function inh: -9%; Cruzain inh Det: -6.2%; RE007 growth inh: 25%

Results for CC(=O)c1ccc(S(=O)(=O)N2CCN(C(=O)c3ccccc3Cc3ccccc3)CC2)cc1 ?
SARS PLP yeast: -2%; Marburg entry inh: -3%; StopGo reporter: -11%; LASV entry inh: -1%; RE007 growth inh: -8%

How did CCc1c(C)sc2c1CCN(Cc1ccc(F)cc1)C2c1ccccc1 (stereo unspecified) do in these assays?
Cruzain inh noDet: 1%; StopGo reporter: 0%; LASV entry inh: inconclusive; Cruzain inh Det: -5.1%

How did CN(Cc1cccs1)C(=O)c1ccc(S(=O)(=O)N2CCCCC2)cc1 do in these assays?
SARS PLP yeast: 1%; StopGo reporter: -16%; NS1 function inh: 4%; RE007 growth inh: -6%

Results for CN(C)CCNC(=O)CN1N=C(c2ccccc2)CCC1=O ?
Cruzain inh noDet: -9%; StopGo reporter: -22%; LASV entry inh: 23%[46.1 µM]; Cruzain inh Det: -0.1%

What do the screens show for `CN(Cc1ccc(C#CCCO)cc1)CC1CCCN(CCc2ccc(Cl)cc2)C1` (stereo unspecified)?
SARS PLP yeast: -3%; StopGo reporter: -17%; NS1 function inh: 7%; RE007 growth inh: -2%

Results for CC(C)N1C(=O)CCC1C(=O)NCc1ccco1 (stereo unspecified) ?
SARS PLP yeast: -3%; Marburg entry inh: 10%[46.1 µM]; StopGo reporter: 10%; LASV entry inh: 6%; RE007 growth inh: 7%

How did COc1ccc2c(c1)c(=O)c(S(=O)(=O)c1ccc(F)cc1)cn2Cc1ccccc1Cl do in these assays?
Marburg entry inh: 20%[46.1 µM]; Cruzain inh noDet: 10%; StopGo reporter: -15%; LASV entry inh: 5%[46.1 µM]; Cruzain inh Det: -0.2%

Results for CC(=O)Nc1ccc(C=NNC(=O)c2ccc(NS(=O)(=O)c3cccs3)cc2)cc1 ?
SARS PLP yeast: 17%; Marburg entry inh: -16%; StopGo reporter: 9%; LASV entry inh: -8%; RE007 growth inh: -3%

Results for CCOc1cc(S(=O)(=O)NC2CCCCCC2)ccc1F ?
SARS PLP yeast: -23%; Marburg entry inh: -28%[46.1 µM]; Cruzain inh noDet: -6%; StopGo reporter: 13%; LASV entry inh: -14%; NS1 function inh: -122%; Cruzain inh Det: -4.2%; RE007 growth inh: 19%

What do the screens show for `Clc1cccc(CNc2nnnn2-c2ccccc2)c1`?
SARS PLP yeast: 0%; Marburg entry inh: inconclusive; Cruzain inh noDet: -6%; StopGo reporter: 9%; LASV entry inh: -2%; NS1 function inh: -1%; Cruzain inh Det: -0.8%; RE007 growth inh: 3%

Two records drawn at random from the list so far:
How did COc1ccc2c(c1)c(=O)c(S(=O)(=O)c1ccc(F)cc1)cn2Cc1ccccc1Cl do in these assays?
Marburg entry inh: 20%[46.1 µM]; Cruzain inh noDet: 10%; StopGo reporter: -15%; LASV entry inh: 5%[46.1 µM]; Cruzain inh Det: -0.2%

How did CCc1c(C)sc2c1CCN(Cc1ccc(F)cc1)C2c1ccccc1 (stereo unspecified) do in these assays?
Cruzain inh noDet: 1%; StopGo reporter: 0%; LASV entry inh: inconclusive; Cruzain inh Det: -5.1%

(list continues)
Results for COc1ccccc1N1CCN(C(=O)c2cc3c(=O)n(Cc4ccco4)ccc3nc2C)CC1 ?
Cruzain inh noDet: inconclusive; StopGo reporter: -5%; LASV entry inh: 1%[46.1 µM]; Cruzain inh Det: -2.5%

How did Cc1cccc(OCc2cc(=O)n3c4c(sc3n2)CCCC4)c1C do in these assays?
Marburg entry inh: 6%[46.1 µM]; Cruzain inh noDet: 5%; StopGo reporter: 0%; LASV entry inh: -8%[46.1 µM]; Cruzain inh Det: 1.1%

Results for CCOC(=O)N1CCc2c(sc(NCc3sccc3C)c2C(=O)Nc2cc(Cl)ccc2OC)C1 ?
Cruzain inh noDet: 23%; StopGo reporter: -8%; LASV entry inh: 3%[46.1 µM]; Cruzain inh Det: -16%

How did COc1cc(OC)cc(-n2c3nc4ccccc4nc3c3c(=O)n(CC4CCCO4)cnc32)c1 (stereo unspecified) do in these assays?
SARS PLP yeast: -3%; Marburg entry inh: 5%; Cruzain inh noDet: inconclusive; StopGo reporter: -23%; LASV entry inh: inconclusive; NS1 function inh: inconclusive; Cruzain inh Det: -4.7%; RE007 growth inh: 1%

How did CCOC(=O)C(CC)Sc1nc2c(cnn2-c2ccccc2)c(=O)[nH]1 (stereo unspecified) do in these assays?
SARS PLP yeast: 2%; Cruzain inh noDet: -14%; StopGo reporter: 0%; NS1 function inh: 2%; Cruzain inh Det: -4.5%; RE007 growth inh: -5%

Results for O=C1NC2NC(=O)N(C(Cc3ccccc3)C(=O)O)C2N1 (stereo unspecified) ?
SARS PLP yeast: 1%; Marburg entry inh: 0%; Cruzain inh noDet: -1%; StopGo reporter: -3%; LASV entry inh: -2%; NS1 function inh: 6%; Cruzain inh Det: 2.9%; RE007 growth inh: -1%

How did Cc1ccc(OCC(=O)Nc2cc(C(C)(C)C)on2)cc1C do in these assays?
SARS PLP yeast: 1%; StopGo reporter: 14%; NS1 function inh: 7%; RE007 growth inh: -26%

Results for CSc1ncccc1C(=O)Nc1ccc2nc(C)sc2c1 ?
SARS PLP yeast: 0%; StopGo reporter: 38%[activator]; NS1 function inh: 4%; RE007 growth inh: -2%

Results for COc1ccc2c(c1)c(CC(=O)OCC(N)=O)c(C)n2C(=O)c1ccc(Cl)cc1 ?
SARS PLP yeast: 0%; StopGo reporter: -22%; NS1 function inh: -3%; RE007 growth inh: -5%

How did N#Cc1nc(-c2ccc(F)cc2)oc1N1CCC(C(N)=O)CC1 do in these assays?
SARS PLP yeast: 1%; StopGo reporter: -7%; NS1 function inh: -2%; RE007 growth inh: 5%

What do the screens show for `Cc1cccc(NC(=S)NC(=O)CCc2ccccc2)c1C`?
SARS PLP yeast: 10%; Marburg entry inh: -8%; Cruzain inh noDet: -16%; LASV entry inh: inconclusive; NS1 function inh: -1%; Cruzain inh Det: -20%; RE007 growth inh: -16%

How did Brc1csc(C=Nc2ccc3c(c2)OCCOCCOCCOCCO3)c1 do in these assays?
SARS PLP yeast: 6%; Marburg entry inh: inconclusive; Cruzain inh noDet: -3%; StopGo reporter: -8%; LASV entry inh: 11%; NS1 function inh: 0%; Cruzain inh Det: 0.0%; RE007 growth inh: -4%

Results for O=C(NCCCNc1ccc(C(F)(F)F)cc1[N+](=O)[O-])c1ccc(Cl)cc1 ?
SARS PLP yeast: -3%; Marburg entry inh: 0%; Cruzain inh noDet: -3%; StopGo reporter: -29%; LASV entry inh: -26%; NS1 function inh: 4%; Cruzain inh Det: -12%; RE007 growth inh: -2%

How did CCn1c(SCC(=O)N(C)c2ccccc2)nc2c([nH]c3ccccc32)c1=O do in these assays?
SARS PLP yeast: 10%; Marburg entry inh: 5%; StopGo reporter: 1%; LASV entry inh: -17%; NS1 function inh: 18%; RE007 growth inh: -19%

What do the screens show for `CCOC(=O)Nc1ccc(NC(=O)OCC)cc1`?
Marburg entry inh: 23%; Cruzain inh noDet: -11%; LASV entry inh: -15%; NS1 function inh: -14%; Cruzain inh Det: 0.7%; RE007 growth inh: 7%
